Source: PubChem BioAssay
Autofluor counter = compound fluorescence in toxin protease inhibitor counterscreen; compound autofluorescence counterscreen, microsphere flow cytometry; stronger effect = higher value; fluorescence intensity (concentration not given with the values); 360,000 compounds, 3.1% hits;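 active = at least 3 SD above the mean of all compounds, about 16000 in these data; inconclusive = too few beads counted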;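 also: 100 nL of 1 mM stock went into each well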
Mtb hypoxia inh = reduces hypoxia-regulated biosensor signal in M. tuberculosis | fluorescence inhibition, % (concentration not given with the values) | AID 1159583 | 300,000 compounds, 0.1% hits | M. tuberculosis hypoxia-regulated fluorescent reporter, fluorescence;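 active = 35 to 45% if threefold the growth effect, above 45% if 1.5-fold the growth effect; inactive = the rest, general growth blockers included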;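 also: wells of about 50 µL received 100 nL stock; 0% = vehicle wells and 100% = reference inhibitor wells; whole bacteria with a GFP reporter of the hypoxia response; strong numbers were not always called active; many hits fall short of the cut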
BJeLR viability = kills HRASV12-expressing BJeLR cells; BJeLR (HRASV12) viability, CellTiter-Glo ATP luminescence, 48 h; reference of the scale not given here; AID 1554; 300,000 compounds, 0.17% hits; inhibition, % (concentration not given with the values);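 active = replicate mean above 50%; inconclusive = above 50% but judged a plate artefact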;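 also: 50 nL library stock added to about 25 µL; numbers are from one replicate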
Sa ugtP lethal = growth inhibition of S. aureus ugtP deletion strain | growth inhibition, % (test concentration not listed) | AID 1259309 | 330,000 compounds, 0.54% hits | S. aureus RN4220 ugtP deletion, OD600 growth, 16 h; some inactives read as strong as hits;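 active = z-score under -3 and OD600 up to 0.15 on both plates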;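 also: plate controls were untreated wells for no effect and antibiotic for full effect; wells of about 80 µL received 100 nL stock; the first replicate is given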
PrP 5UTR inh = suppresses PrP 5' UTR mRNA reporter expression; cell-based PrP 5' UTR mRNA reporter, plate reader; inhibition, % (no concentration beside the values); 340,000 compounds, 0.35% hits;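 active = every replicate at 50% or more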;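 also: 0 = median of the neutral control wells; tested in H4 reporter cells; numbers are from one replicate; inactives centre near -14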
Sa RN4220 lethal = S. aureus RN4220 growth inhibition. 330,000 compounds, 0.33% hits. inhibition, % (no concentration beside the values). AID 1259311. OD600, 16 h;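 active = z-score of -3 or lower and OD600 up to 0.18 on both plates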;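 also: plate controls were untreated cells for no effect and reference antibiotic for full effect; stock transfer was 100 nL into about 80 µL; one replicate is shown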
Mtb hypoxia inh growth = further read-out of Mtb hypoxia inh, marked with its call; growth inhibition, %; measured here: M. tuberculosis growth (absorbance);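 0% = vehicle and 100% = reference antibiotic; read after six days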
Starred values were filed as active, the others as inactive; ? = inconclusive; nt = no result given. Hits appear at their usual frequency; about 4.1% have a hit in one of these screens.

SMILES	Autofluor counter	Mtb hypoxia inh	Mtb hypoxia inh growth	BJeLR viability	Sa ugtP lethal	PrP 5UTR inh	Sa RN4220 lethal
CC(=NNC(=S)Nc1ccc(F)cc1)c1ccc2c(c1)OCCO2	nt	1	5	nt	13	nt	1.6
CNS(=O)(=O)c1cccc(C(=O)OCC(=O)Nc2ccc3ccccc3c2)c1	3695	4	-3	nt	0	-15	-0.3
Cc1ccc(C)c(S(=O)(=O)NCCCn2ccnc2)c1	2221	9	12	4	7	-7	3.7
CC(=O)c1cccc(NC(=O)Nc2cnn(Cc3ccc(Cl)cc3Cl)c2)c1	22775*	-1	-2	-5	-12	-4	-12
CSc1nnc(-c2nnc(SC)n2-c2ccccc2)n1-c1ccccc1	16237*	8	7	4	-2	-5	7.9
O=C(Nc1ccc(Cl)c(C(F)(F)F)c1)C1CC=CC2CCN(C3CC3)C(=O)C21 (configuration not stated)	nt	8	10	nt	0	nt	1.0
Cc1ccccc1NCC(=O)N=Nc1c(O)[nH]c2ccc([N+](=O)[O-])cc12	5153	6	-4	-7	-7	-16	-2.1
CCNC(=O)NC(=O)C(C)OC(=O)c1cccnc1SC (configuration not stated)	2891	19	16	-5	-2	3	-14
OC(CN1CCOCC1)c1ccc(F)cc1 (configuration not stated)	2063	9	6	0	5	-9	3.8
Cc1ccc(NC(=O)COC(=O)c2ccc(=O)n(Cc3ccccc3)n2)cc1F	5023	-1	3	-16	5	0	-1.8
CC(C)n1cnc2cc(NCc3ccccc3O)ccc21	3499	-6	7	-1	-1	-116	1.6
COC(=O)c1ccc(NC(=O)CNCc2ccncc2)cc1	6626	nt	nt	-2	nt	-2	nt
O=C(NCC1CCCO1)[C@@H]1CSC2c3ccccc3C(=O)N21 (some centres not stated)	3935	nt	nt	8	5	-13	3.0
COc1cccc(C(=O)Nc2cccc(NC(C)=O)c2)c1	11178	15	2	2	-6	-17	4.6
Nc1nc(N)c(N=Nc2ccccc2)c(=O)[nH]1	3683	11	11	nt	14	-15	-1.3
O=C(Nc1ccc(Cl)cc1)N1CCOC12CCC1(CC2)OCCO1	3262	-1	0	-12	2	-6	-4.0
O=C(C1CCCN(S(=O)(=O)c2cccc3nsnc23)C1)N1CCc2ccccc2C1 (configuration not stated)	2655	8	10	1	9	-3	10
Cc1[nH]n(-c2nc(-c3ccccc3F)cc(=O)[nH]2)c(=O)c1CCO	5047	-13	-6	0	6	-27	5.0
CC=CC1=CC(=O)CC(c2ccc3c(c2)OCO3)C1 (configuration not stated)	nt	9	12	nt	9	nt	4.2
CCCOC(=O)Nc1c(C)cccc1C(C)C	2441	5	-10	-2	3	-21	0.7
CCCCc1cc(=O)oc2cc(OC(C)C(=O)NCC3CCC(C(=O)O)CC3)c(Cl)cc12 (configuration not stated)	5434	nt	nt	-1	6	-22	2.0
CCc1ccccc1NC(=S)N(Cc1ccc(OC)cc1)CC1CCC(C(=O)O)CC1 (configuration not stated)	3467	3	-6	6	14	-17	0.6
O=S(=O)(c1ccccc1)N1CCN(c2nc(-c3cccnc3)nc3ccccc23)CC1	4631	10	-1	nt	4	-2	-0.3
COc1cc(/C=C/C(=O)O)cc(S(=O)(=O)NCc2ccc3c(c2)OCO3)c1OC	4695	-3	-7	0	4	-11	-0.6
CN(C[C@H](Cc1ccccc1)N(CCN(CCc1ccccc1)N=O)N=O)N=O	3959	nt	nt	-18	nt	-16	nt
Cc1nc(SCCc2nc3ccccc3[nH]2)c2oc3ccccc3c2n1	4360	10	12	nt	7	-7	7.5
Cc1ccc(/C=C/C(=O)NCc2cccs2)cc1	1936	12	-2	0	12	-35	0.0
CCSc1nnc(NC(=O)C2CCN(S(=O)(=O)c3cc(C(F)(F)F)ccc3Cl)CC2)s1	7348	-7	-3	4	7	-28	8.8
O=C(COc1ccc2ccccc2c1)NNC(=O)[C@@H]1CCCC[C@@H]1C(=O)O	2575	nt	nt	-5	nt	42	nt
COc1ccc(NC(=O)Cn2c(=O)c(C)nc3ccccc32)cc1Cl	5800	14	2	2	1	-14	0.9
Cc1ccc2c(c1)C(=O)C(=O)N2CCCOc1ccccc1	3377	10	1	-13	11	nt	11
COc1cccc(NC(=O)Nc2nnc(-c3ccccc3SCc3ccccc3)s2)c1	2739	nt	nt	3	-19	-8	3.3
CCCNS(=O)(=O)c1ccc(OCC(=O)N2CCN(Cc3ccccc3)CC2)cc1	4283	-10	8	1	-4	0	0.5
O=C(c1nc2nc(-c3ccccc3)cc(C(F)(F)F)n2n1)N1CCOCC1	3409	3	7	-7	3	-13	3.6
CCOC(=O)C1C2COc3ccc(OC)cc3C2N2C(=O)CN(C)C(=O)[C@@]12C (some centres not stated)	nt	5	1	nt	-3	nt	7.5
COc1cc2[nH]cc(C(=O)NCc3cccs3)c(=O)c2cc1OC	17586*	-12	-14	-10	-6	4	-2.4
COCCN(C(=O)COC(=O)c1cccnc1Cl)c1c(N)n(Cc2ccccc2)c(=O)[nH]c1=O	5513	7	0	2	7	-6	3.3
O=C(NN=Cc1coc2ccccc2c1=O)c1ccc(Cl)cc1	nt	2	-1	nt	2	nt	4.0
CC(=O)c1ccc(-c2ccc(C(=O)N3CCCc4ccccc43)o2)cc1	3244	4	9	2	7	-68	8.4
C/C(=N\NC(=O)c1nnn(-c2nonc2N)c1C)c1ccc(OCc2ccccc2)cc1	6240	nt	nt	1	nt	-49	nt
CCCN1CCN(C2CCCCC2NS(=O)(=O)c2ccc(Cl)cc2)CC1 (configuration not stated)	4320	6	-1	-3	4	-22	0.8
CC1CCC2(CC1)NC(=O)N(CC(=O)N(Cc1ccccc1)C(C)(C)C)C2=O (configuration not stated)	3880	-10	-4	nt	2	-22	2.2
COc1ccc(CCNC(=O)Cc2cc(=O)[nH]c(=O)[nH]2)cc1OC	6076	13	12	-3	-4	-19	-7.6
Cc1ccc(CNC(=O)CSc2nc3ccccc3c(=O)n2CCCO)cc1	9472	-2	9	0	-2	-21	7.2
Cn1c(=O)c2c(nc(CCc3ccccc3)n2C)n(C)c1=O	3574	15	8	nt	10	-37	5.1

Reprinted at random: 4 entries already listed
SMILES	Autofluor counter	Mtb hypoxia inh	Mtb hypoxia inh growth	BJeLR viability	Sa ugtP lethal	PrP 5UTR inh	Sa RN4220 lethal
CCCNS(=O)(=O)c1ccc(OCC(=O)N2CCN(Cc3ccccc3)CC2)cc1	4283	-10	8	1	-4	0	0.5
CCNC(=O)NC(=O)C(C)OC(=O)c1cccnc1SC (configuration not stated)	2891	19	16	-5	-2	3	-14
COc1cc(/C=C/C(=O)O)cc(S(=O)(=O)NCc2ccc3c(c2)OCO3)c1OC	4695	-3	-7	0	4	-11	-0.6
COc1ccc(CCNC(=O)Cc2cc(=O)[nH]c(=O)[nH]2)cc1OC	6076	13	12	-3	-4	-19	-7.6

Next part
SMILES	Autofluor counter	Mtb hypoxia inh	Mtb hypoxia inh growth	BJeLR viability	Sa ugtP lethal	PrP 5UTR inh	Sa RN4220 lethal
Cn1nc(-c2ccc(Cl)cc2)cc1NC(=O)CC(C)(C)CC(=O)O	nt	-6	9	-11	-2	nt	1.3
CCCc1cc(=O)[nH]c2nnc(SCC(=O)Nc3ccc4c(c3)OCCO4)n12	5692	1	13	7	-1	-5	-1.0
CC1=NNC(=O)C1CC(=O)NN=C/C=C/c1ccccc1 (configuration not stated)	nt	1	-12	nt	9	nt	1.4
Cc1ccc(-n2nc3c(=O)n(C(C)C(=O)NCCC4=CCCCC4)nc(C)c3c2C)cc1 (configuration not stated)	5635	0	0	-5	1	-7	1.2
Cc1nn(CCc2nn[nH]n2)c2nc(-c3ccc(Br)cc3)cc(C(F)(F)F)c12	4118	8	-1	-2	12	-18	16
Cc1ccc(C)c(Sc2ccc(NC(=O)CCN3C(=O)NC4(CCCC4)C3=O)cc2)c1	nt	11	5	nt	-9	-7	-13
Cc1ccc(S(=O)(=O)N(C)C)cc1NC(=O)c1ccccc1Br	4767	-3	8	-1	1	-55	0.3
O=C(NC(=S)N1CCOCC1)C12CC3CCC(CC(C3)C1)C2	2232	10	-6	3	3	-24	1.5
Cc1cc(-c2cc(C(=O)NC3CCCC3)on2)nc(NC2CCCC2)n1	4115	7	12	4	3	-17	7.8
COc1ccc(OC)c(C2C(C#N)=C(N)Oc3c2c(C)nn3-c2cccc(Cl)c2)c1 (configuration not stated)	20225*	3	9	0	0	-11	-1.0
C#CCOCCOCCOCCNc1nc(N2CCN(C(=O)Cn3cc(CC(C)O)nn3)CC2)nc(N2CCN(C(=O)Cn3cc(CC(C)O)nn3)CC2)n1 (configuration not stated)	3632	20	8	2	0	-8	2.2
O=C(COc1ccc(S(=O)(=O)N2CCCCC2)cc1)NCc1ccncc1	3563	nt	nt	-4	-3	-8	0.6
COC(=O)c1oc2ccccc2c1NC(=O)/C=C/C(=O)O	4513	-1	3	-5	1	-11	6.1
Cc1ccc(-c2nc3cc(C)ccc3o2)cc1	3240	7	2	-7	12	27	5.5
O=C(CSc1nc2c(cnn2-c2cccc(Cl)c2)c(=O)[nH]1)NCCC1=CCCCC1	2783	-5	-5	nt	-7	-4	3.1

Part of the list above in a different format.
Every second line gives: Autofluor counter | Mtb hypoxia inh | Mtb hypoxia inh growth | BJeLR viability | Sa ugtP lethal | PrP 5UTR inh | Sa RN4220 lethal
CC1=NNC(=O)C1CC(=O)NN=C/C=C/c1ccccc1 (configuration not stated)
→ nt | 1 | -12 | nt | 9 | nt | 1.4
O=C(c1nc2nc(-c3ccccc3)cc(C(F)(F)F)n2n1)N1CCOCC1
→ 3409 | 3 | 7 | -7 | 3 | -13 | 3.6
COc1cccc(C(=O)Nc2cccc(NC(C)=O)c2)c1
→ 11178 | 15 | 2 | 2 | -6 | -17 | 4.6
Cc1nn(CCc2nn[nH]n2)c2nc(-c3ccc(Br)cc3)cc(C(F)(F)F)c12
→ 4118 | 8 | -1 | -2 | 12 | -18 | 16
CC1CCC2(CC1)NC(=O)N(CC(=O)N(Cc1ccccc1)C(C)(C)C)C2=O (configuration not stated)
→ 3880 | -10 | -4 | nt | 2 | -22 | 2.2
O=C(C1CCCN(S(=O)(=O)c2cccc3nsnc23)C1)N1CCc2ccccc2C1 (configuration not stated)
→ 2655 | 8 | 10 | 1 | 9 | -3 | 10

Entries of single compounds, quoted from the list. Order of values: Autofluor counter	Mtb hypoxia inh	Mtb hypoxia inh growth	BJeLR viability	Sa ugtP lethal	PrP 5UTR inh	Sa RN4220 lethal
CCCN1CCN(C2CCCCC2NS(=O)(=O)c2ccc(Cl)cc2)CC1 (configuration not stated) is listed with 4320	6	-1	-3	4	-22	0.8
COCCN(C(=O)COC(=O)c1cccnc1Cl)c1c(N)n(Cc2ccccc2)c(=O)[nH]c1=O is listed with 5513	7	0	2	7	-6	3.3
CC1CCC2(CC1)NC(=O)N(CC(=O)N(Cc1ccccc1)C(C)(C)C)C2=O (configuration not stated) is listed with 3880	-10	-4	nt	2	-22	2.2
C/C(=N\NC(=O)c1nnn(-c2nonc2N)c1C)c1ccc(OCc2ccccc2)cc1 is listed with 6240	nt	nt	1	nt	-49	nt
O=C(C1CCCN(S(=O)(=O)c2cccc3nsnc23)C1)N1CCc2ccccc2C1 (configuration not stated) is listed with 2655	8	10	1	9	-3	10

(cont.)
SMILES	Autofluor counter	Mtb hypoxia inh	Mtb hypoxia inh growth	BJeLR viability	Sa ugtP lethal	PrP 5UTR inh	Sa RN4220 lethal
CC(NC(=O)C1CCN(S(=O)(=O)c2ccc3nc4c(c(C(=O)O)c3c2)CCCC4)CC1)c1ccccc1 (configuration not stated)	5174	3	2	-2	7	-14	1.6
CC1CCC/C(=N/Nc2ccc([N+](=O)[O-])cc2[N+](=O)[O-])C1 (configuration not stated)	?	nt	nt	2	nt	-14	nt
O=C(NCc1ccccc1F)c1ccc2c(c1)OCCO2	3484	19	14	-11	12	-25	26
CCCc1nc2cc(CC(=O)OC)ccc2o1	24068*	0	4	0	4	-32	2.9
O=C1OCCC1S(=O)(=O)c1ccc2ccccc2c1 (configuration not stated)	?	-2	-14	nt	5	-20	4.9
Cc1ccccc1C(=O)Nc1c(-c2cccs2)c(=O)c2ccccc2n1C	6025	-2	2	5	-3	-12	1.5
